Compound activity: PubChem BioAssay, Johns Hopkins Ion Channel Center
KCNQ2 inh – KCNQ2 potassium channel inhibitors, primary screen, cell-based, CHO-K1, FluxOR thallium flux, B-score (AID 2156). Potassium voltage-gated channel subfamily KQT member 2 (Rattus norvegicus), O88943. 20 min; stronger effect = lower value; only compounds with negative scores are shown here; some inactives read as strong as hits. B-score at 10 µM. 1.1% of 310,000 active;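 active = fluorescence ratio B-score at most minus 3 library SDs, with starting brightness B-score within 2 library SDs, cut at about -5.5 in these data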
Target sequence (O88943 whole entry, looked up): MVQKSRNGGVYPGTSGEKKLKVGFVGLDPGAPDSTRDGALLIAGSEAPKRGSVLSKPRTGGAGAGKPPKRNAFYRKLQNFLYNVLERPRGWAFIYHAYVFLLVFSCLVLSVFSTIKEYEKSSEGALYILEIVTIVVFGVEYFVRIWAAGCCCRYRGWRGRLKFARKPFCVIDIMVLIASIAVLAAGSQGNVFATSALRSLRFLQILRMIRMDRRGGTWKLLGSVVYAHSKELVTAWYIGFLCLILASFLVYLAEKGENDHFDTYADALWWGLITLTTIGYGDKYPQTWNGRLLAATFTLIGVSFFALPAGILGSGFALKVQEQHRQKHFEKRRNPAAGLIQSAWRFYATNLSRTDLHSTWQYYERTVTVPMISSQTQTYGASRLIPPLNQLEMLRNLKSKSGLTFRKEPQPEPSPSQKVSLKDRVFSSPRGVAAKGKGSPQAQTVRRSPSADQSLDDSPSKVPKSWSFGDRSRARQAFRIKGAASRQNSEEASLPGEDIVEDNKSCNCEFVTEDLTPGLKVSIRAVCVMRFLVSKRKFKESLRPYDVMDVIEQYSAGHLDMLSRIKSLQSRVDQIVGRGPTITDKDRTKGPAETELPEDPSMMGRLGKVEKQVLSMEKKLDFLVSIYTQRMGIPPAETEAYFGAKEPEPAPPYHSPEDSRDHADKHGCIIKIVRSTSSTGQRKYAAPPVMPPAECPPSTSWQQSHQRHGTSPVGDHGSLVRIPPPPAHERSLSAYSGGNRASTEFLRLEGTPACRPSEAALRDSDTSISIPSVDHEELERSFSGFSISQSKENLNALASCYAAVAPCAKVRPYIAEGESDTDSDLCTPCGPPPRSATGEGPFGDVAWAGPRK
KCNQ2 inh baseline – recorded beside KCNQ2 inh, whose call it bears; B-score; measured here: initial fluorescence intensity artifact check;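 brightness before thallium and not channel activity; 0 = typical well and far values either way flag optical interference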
An asterisk follows results filed as active; i = inactive; & = joins results of further samples. These rows are one share of the data. The share of hits here may be higher or lower than overall.

SMILES	KCNQ2 inh	KCNQ2 inh baseline
O=C1NC(=S)N(c2ccc(F)cc2)C(=O)/C1=C/c1ccccc1O	i	0.92
C[C@H]1CC[C@@H]2N(C1)C[C@H]1[C@@H]3C[C@H]4[C@@H](CC(=O)[C@H]5C[C@@H](O)CC[C@@]54C)[C@@H]3CC[C@H]1[C@]2(C)O	i	-0.19
Clc1ccc(OCC#CCN2CCOCC2)cc1	i	0.36
C[N+](C)(C)CC#CCOC(=O)Nc1cccc(Cl)c1	i	-0.05
NCC(CC(=O)O)c1ccc(Cl)cc1 (stereo not drawn)	i	-0.51
O=c1[nH]c(O)c(N=Nc2cccc(S(=O)(=O)N3CCOCC3)c2)c(=O)[nH]1	i	-0.71
COc1ccc(OC)c(C2=NOC(C(=O)N3CCC4(CC3)OCCO4)C2)c1 (stereo not drawn)	i	0.06
COc1cc2c(cc1OC)C(C(=O)NCCC(C)C)C1CCCCN1C2=O (stereo not drawn)	i	0.38
Cc1[nH]c2ccc(OCc3ccccc3)cc2c1CCN	i	1.6
CC(C)(C)NC(=S)/N=C(\N)N[N+](=O)[O-]	i	3
CC(C)N(CC(O)c1cccc([N+](=O)[O-])c1)C(C)C (stereo not drawn)	i	0.79
O=C1NC(=O)C(Cc2cccs2)C(=O)N1	i	0.46
CCS(=O)(=O)N1CCCC(C(=O)N2CCC3(CC2)OCCO3)C1 (stereo not drawn)	i	1.8
C=CCN(CC=C)Cc1c[nH]c2ccccc12	i	-0.45
CC(=O)Nc1cccc([As](=O)(c2cccc(NC(C)=O)c2)c2cccc(NC(C)=O)c2)c1	i	1.3
C=CCn1c(O)c(/C=C2/C=c3ccccc3=N2)c(=O)[nH]c1=S	i	0.17
CCCc1nc2ccccc2c(=O)n1-c1ccccc1OC	i	-0.68
O=c1c(C=NCCN2CCNCC2)c(O)n(C2CCCCC2)c(=O)n1C1CCCCC1	i	0.74
CN1C(=O)/C(=C\c2ccc(Br)s2)C(=O)NC1=S	i	1.1
CCOC(=O)C(O)(c1ccc(NC(=O)Oc2ccccc2)cc1)C(F)(F)F (stereo not drawn)	i	-0.9
CC1(c2ccc(Cl)cc2Cl)OCC(Cn2cncn2)O1 (stereo not drawn)	i	-1.5
COc1ccc(CN2CCNCC2)cc1	i	1.7
C=CCN1C(=O)/C(=C/c2ccc(N3CCOCC3)o2)C(=O)NC1=S	i	4.3
Cc1cccc(N2CCN(Cc3ccc4c(c3)OCO4)CC2)c1C	i	-1.2
CC(C)(C)NCC(O)c1cc(Cl)c(N)c(Cl)c1 (stereo not drawn)	i	-0.43
CCc1ccc(CN2CCN(Cc3ccc(SC)cc3)CC2)cc1	i	-0.16
Cc1ccc(Cc2c(C)nc3nc(SCC(=O)N4CCC5(CC4)OCCO5)nn3c2C)cc1	i	-0.01
OC(CN1CCOCC1)c1csc2ccccc12 (stereo not drawn)	i	-0.51
CN1CCN(Cc2cc(=O)n3ccsc3n2)CC1	i	0.61
CC1(C)CC(=O)C(C=NCCN2CCN(C(=O)Cc3ccc(F)cc3)CC2)=C(O)C1	i	0.78

Two entries from above, as a markdown table:
| Structure | KCNQ2 inh | KCNQ2 inh baseline |
| --- | --- | --- |
| CCOC(=O)C(O)(c1ccc(NC(=O)Oc2ccccc2)cc1)C(F)(F)F (stereo not drawn) | i | -0.9 |
| CC1(c2ccc(Cl)cc2Cl)OCC(Cn2cncn2)O1 (stereo not drawn) | i | -1.5 |

Entries from the list above that contain nitrogen in an aromatic ring (9):
SMILES	KCNQ2 inh	KCNQ2 inh baseline
O=c1[nH]c(O)c(N=Nc2cccc(S(=O)(=O)N3CCOCC3)c2)c(=O)[nH]1	i	-0.71
Cc1[nH]c2ccc(OCc3ccccc3)cc2c1CCN	i	1.6
C=CCN(CC=C)Cc1c[nH]c2ccccc12	i	-0.45
C=CCn1c(O)c(/C=C2/C=c3ccccc3=N2)c(=O)[nH]c1=S	i	0.17
CCCc1nc2ccccc2c(=O)n1-c1ccccc1OC	i	-0.68
O=c1c(C=NCCN2CCNCC2)c(O)n(C2CCCCC2)c(=O)n1C1CCCCC1	i	0.74
CC1(c2ccc(Cl)cc2Cl)OCC(Cn2cncn2)O1 (stereo not drawn)	i	-1.5
Cc1ccc(Cc2c(C)nc3nc(SCC(=O)N4CCC5(CC4)OCCO5)nn3c2C)cc1	i	-0.01
CN1CCN(Cc2cc(=O)n3ccsc3n2)CC1	i	0.61

Next section
SMILES	KCNQ2 inh	KCNQ2 inh baseline
O=C(CN1CC(c2ccccc2)CC1=O)Nc1ccccc1 (stereo not drawn)	i	-0.16
O=C(Cn1nc(Cc2cccnc2)c2ccccc2c1=O)N1CCC2(CC1)OCCO2	i	0.14
CCN1C(=O)C(=Cc2c(C)n(CC(=O)NCC3CCCO3)c3ccccc23)C(=O)N(CC)C1=S (stereo not drawn)	i	-1.2
Cc1cccc(C(=O)NC(Oc2ccccc2)C(Cl)(Cl)Cl)c1 (stereo not drawn)	-5.7*	1.2*
CN1C(=O)C(=Cc2c(OCc3cnc(Cl)s3)ccc3ccccc23)C(=O)N(C)C1=O	i	0.57
O=c1[nH]c2c(c(=O)n1C1CCCCC1)CCC2	i	-0.18
CCCNC(=O)c1c(N)n(CC2CCCO2)c2nc3ccccc3nc12 (stereo not drawn)	i	-2.9
CCOc1cc2[nH]c(=S)n(CCCC(=O)N3CCC4(CC3)OCCO4)c(=O)c2cc1OCC	i	-2.7
c1ccc(CCNCc2cccnc2)cc1	i	0.02
O=C([O-])c1ccc(-[n+]2c(-c3ccccc3)cc(-c3ccccc3)cc2-c2ccccc2)cc1	i	-0.11
Cc1ccccc1NP(=O)(Oc1ccccc1F)Oc1ccccc1F	i	-0.71
COC(=O)C1=C(c2cc3ccccc3s2)C[C@@H]2CC[C@H]1N2C(=O)N1CCCCC1	i	-0.27
Cc1ccnc(-n2c(-c3ccco3)nc3ccccc3c2=O)c1	i	-0.48
CCC(=NCCc1c[nH]c2ccccc12)c1c(O)n(C)c(=O)n(C)c1=O	i	-0.59
CCCCCSc1cc(OC)c(CCN)cc1OC	i	-0.25
O=S(=O)(NC1CCCCCCC1)OCC(Cl)(Cl)Cl	i	2.2
O=c1[nH]c(=O)n(-c2ccccc2)c(O)c1C=NC12CN3CN(CN(C3)C1)C2	i	-1.5
COc1ccc(Cn2c(N)c(C(=O)NCc3ccco3)c3nc4ccccc4nc32)cc1	i	-0.85
Cc1cc(C)cc(N2C(=O)/C(=C\c3ccc(N4CCN(C)CC4)o3)C(=O)NC2=S)c1	i	18
O=C1c2ccccc2C(=O)N1Cc1nc2ccccc2c(=O)n1-c1ccc(Br)cn1	i	4.6
COc1cccc(CNCCc2c[nH]c3ccccc23)c1OC	i	-0.25
CCC(C)C(=O)N[C@@H](c1ccccc1)[C@@H](O)C(=O)O[C@H]1C[C@@]2(O)[C@@H](OC(=O)c3ccccc3)C3[C@](C)(C(=O)[C@H](OC(C)=O)C(=C1C)C2(C)C)[C@@H](O)C[C@H]1OC[C@@]31OC(C)=O (stereo partly drawn)	i	1.3
COc1cccc(N2C(=O)NC(=O)/C(=C\c3cn(C)c4ccccc34)C2=O)c1	i	7.7
CCC(=O)N1N=C2C3CCN(CC3)C2C1c1ccc(C)cc1 (stereo not drawn)	i	-0.51
CC(C(=O)c1c[nH]c2ccccc12)N1CCSCC1 (stereo not drawn)	i	-0.68
CC[C@H]1CC2CN3CCc4c([nH]c5cc(OC)ccc45)[C@](C(=O)OC)(C2)[C@H]13	i	0.32
C=CCn1c(C)c(C=C2C(=O)NC(=O)NC2=O)c2ccccc21	i	-0.37
CCCN(CC#CCO)CCC	i	-0.08
NCCc1nc2ccccc2s1	i	0.82
C[N+]12CCC(CC1)C(C(O)(c1cccc(Cl)c1)c1cccc(Cl)c1)C2 (stereo not drawn)	i	0.99
Cc1sc2c(c1C)C(c1ccc(C(C)(C)C)cc1)=NCC(=O)N2CC(=O)Nc1nccs1	i	-1.8
CCOP(=O)(Cc1cc(C(=O)CC)c(C)o1)OCC	i	0.77
CN1C[C@H](CNC(=O)OCc2ccccc2)C[C@@H]2c3cccc4c3c(cn4C)C[C@H]21	i	0.85
CCOc1cc2c(cc1OCC)-n1cccc1C(c1cc(C)c(OC)cc1C)NC2 (stereo not drawn)	i	-0.12
COc1cccc(-c2nn(CCC#N)cc2C(=O)Nc2ccccc2Cl)c1	i	0.58
CCOc1ccc(-n2c(-c3ccoc3)nc3ccccc3c2=O)cc1	i	-0.64
O=C(Cc1ccccc1)Oc1ccc(N2C(=O)CCC2=O)cc1	i	-0.44
CN(C)CCN=Cc1c(O)n(-c2cccc(C(F)(F)F)c2)c(=O)[nH]c1=O	i	0.99
O=P(Nc1c(Cl)cccc1Cl)(c1ccccc1)c1nc2c(s1)CCCC2 (stereo not drawn)	i	-0.1
Cc1cc(N2C(=O)C3CCCN3C2c2cccc(Cl)c2)no1 (stereo not drawn)	i	0.05
O=C(c1ccc(Cl)cc1)C1CCCN(C2CCSCC2)C1 (stereo not drawn)	i	0.55
COc1ccc(C(=O)c2nc3ccccc3n2C(C)C)cc1OC	i	-0.21
CCCCc1nc(N2CCNCC2)c(C#N)c2c1CSC(C)(C)C2	i	-0.06
CCN(CC)c1nc2c(C)cccn2c(=O)c1C=C1C(=O)NC(=O)NC1=O	i	-1.2
CSc1ncc(/C=C2/C(=O)NC(=O)N(c3ccc(C)cc3)C2=O)cn1	i	-1.5
CN(C)c1ccc([P+](=O)c2ccc(N(C)C)cc2)cc1	i	-0.42
CN1CCN(C(=O)COc2ccc(C(C)(C)C)cc2Br)CC1	i	1.9
Cc1c2ccncc2c(C)c2c1[nH]c1ccccc12	i	1.3
COc1ccccc1C1CC2CCC(C1OC(C)=O)N2Cc1ccccc1 (stereo not drawn)	i	2.2
O=C(NC(c1ccc(Cl)cc1)P(=O)(Oc1ccccc1)Oc1ccccc1)OCc1ccccc1 (stereo not drawn)	-9.5*	0.66*
CCC(=NCc1ccc2c(c1)OCO2)c1c(O)n(C2CCCCC2)c(=O)[nH]c1=O	i	-1
O=c1cccc2n1CC1CC2CN(Cc2cccc(Cl)c2Cl)C1 (stereo not drawn)	i	-0.03
CN1CCN(c2ccc(S(C)(=O)=O)cc2[N+](=O)[O-])CC1	i	-3.1
CC12CCC3C(CC=C4CC(O)CCC43C)C1C/C(=C\c1ccccc1F)C2=O (stereo not drawn)	i	-0.22
COc1cccc([C@@]2(O)CCCC[C@@H]2CN(C)C)c1	i	1.4&-0.45
O=C(c1ccccc1F)N1C[C@H]2C[C@@H](C1)c1cccc(=O)n1C2	i	-0.81
Cc1c(/C=N/O)c2ccccc2n1C	i	0.33
O=[N+]([O-])c1cc([As](=O)(O)c2ccc(O)c([N+](=O)[O-])c2)ccc1O	i	0.64
COCCOC(=O)c1c(N)n(Cc2ccco2)c2nc3ccccc3nc12	i	1
CCOC(=O)c1ccc2c(c1)n(Cc1ccccc1)c(C)[n+]2CC	i	1.6

3 compounds from above, ordered by molar mass, lowest first:
SMILES	KCNQ2 inh	KCNQ2 inh baseline
CN1CCN(c2ccc(S(C)(=O)=O)cc2[N+](=O)[O-])CC1	i	-3.1
COCCOC(=O)c1c(N)n(Cc2ccco2)c2nc3ccccc3nc12	i	1
CN1CCN(C(=O)COc2ccc(C(C)(C)C)cc2Br)CC1	i	1.9

Next records.
SMILES	KCNQ2 inh	KCNQ2 inh baseline
O=C(c1cc(C(=O)NCc2ccccc2)c(=O)n(Cc2ccccc2)c1)c1cc(Cl)ccc1O	i	-0.06
C=CCNC(=S)/N=C/c1c(O)[nH]c(=O)[nH]c1=O	i	-0.14
CC1CCC(N2CCN(C(=O)COc3ccccc3)CC2)CC1 (stereo not drawn)	i	1.3
Cc1nn(Cc2ccccc2Cl)c(Cl)c1C(=O)OCC(=O)NCc1ccco1	i	0.01
CN(C)[C@@H]1C(=O)C(C(N)=O)=C(O)[C@@]2(O)C(=O)C3=C(O)c4c(O)cccc4[C@@](C)(O)C3[C@H](O)C12 (stereo partly drawn)	i	-1.6
OCC#CC[N+]1(CC#Cc2ccccc2)CCCC1	i	-0.14
COC(=O)C1=C(c2cc3ccccc3o2)C[C@@H]2CC[C@H]1N2C(=O)N1CCC(C)CC1	i	-1.4
CN(CCc1nnc(N)s1)[N+](=O)[O-]	i	1.4
COC(=O)C1=C(c2ccccc2)C[C@@H]2CC[C@H]1N2C(=O)NCc1ccccc1	i	0.05
COCCOC(=O)C1=C(N)OC(C)=C(C(=O)OC)C12C(=O)Nc1ccccc12 (stereo not drawn)	i	1.1
CCNc1cc(N2CCN(C)CC2)ccc1[N+](=O)[O-]	i	-0.06
CCC1(CCCC(=O)c2ccc(F)cc2)C(=O)NC(=S)NC1=O	i	0.45
Cn1cc(C(=O)c2ccccc2)c2ccccc21	i	-0.48
Cc1ccc(C(=O)N[C@@H](C)CN2C3=NC[C@H](Cc4ccccc4)N3C[C@H]2Cc2ccc(O)cc2)cc1Br	i	0.07
Fc1ccc(CCNCc2ccc(Br)cc2)cc1	i	-1.7
O=C(Nc1ccccc1Cl)OC1CN2CCC1CC2 (stereo not drawn)	i	0.15
N#CC1=C(N)Oc2c(c(=O)oc3ccccc23)C1c1ccc(OC(=O)N2CCOCC2)cc1 (stereo not drawn)	i	0.03
CCC(=NCCN1CCCCC1)c1c(O)n(C)c(=O)n(C)c1=O	i	-0.14
Cc1cc(C)cc(-n2c(O)c(C=Nc3ccc(N4CCOCC4)cc3)c(=O)[nH]c2=S)c1	i	0.32
CS(=O)(=O)NNP(=O)(NNS(C)(=O)=O)NC(=O)c1ccccc1	i	-0.49
O=C(C[N+]12CCC(CC1)C(CO)C2)c1ccc([N+](=O)[O-])cc1 (stereo not drawn)	i	-0.07
Cc1ccsc1C(=O)C1CCCN(Cc2sc(N(C)C)nc2Cl)C1 (stereo not drawn)	i	-0.3
Cc1cc(OCC(=O)NCc2ccncc2)c2c3c(c(=O)oc2c1)CCCC3	i	-3.2
CCCCCCn1c(O)c(C=NCCN2CCCCC2)c(=O)[nH]c1=O	i	-3.5
